Screening data deposited in PubChem BioAssay by several laboratories.
PABP FP inh: PABP-poly(A) binding inhibition. P11940. PABP-poly(A) RNA binding, fluorescence polarization. inhibition, % at 35 µM. 290,000 tested, 1% active;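 active = 50% or more with normal probe brightness, or confirmed in later tests; about a fifth of its hits are not listed in these tables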;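 also: calls also rest on retests at 20 µM and on dose response follow-up; controls were probe without protein and protein plus probe with vehicle; some compounds called inactive have numbers as strong as hits; many hits fall short of the cut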
Target sequence (P11940 whole entry, looked up): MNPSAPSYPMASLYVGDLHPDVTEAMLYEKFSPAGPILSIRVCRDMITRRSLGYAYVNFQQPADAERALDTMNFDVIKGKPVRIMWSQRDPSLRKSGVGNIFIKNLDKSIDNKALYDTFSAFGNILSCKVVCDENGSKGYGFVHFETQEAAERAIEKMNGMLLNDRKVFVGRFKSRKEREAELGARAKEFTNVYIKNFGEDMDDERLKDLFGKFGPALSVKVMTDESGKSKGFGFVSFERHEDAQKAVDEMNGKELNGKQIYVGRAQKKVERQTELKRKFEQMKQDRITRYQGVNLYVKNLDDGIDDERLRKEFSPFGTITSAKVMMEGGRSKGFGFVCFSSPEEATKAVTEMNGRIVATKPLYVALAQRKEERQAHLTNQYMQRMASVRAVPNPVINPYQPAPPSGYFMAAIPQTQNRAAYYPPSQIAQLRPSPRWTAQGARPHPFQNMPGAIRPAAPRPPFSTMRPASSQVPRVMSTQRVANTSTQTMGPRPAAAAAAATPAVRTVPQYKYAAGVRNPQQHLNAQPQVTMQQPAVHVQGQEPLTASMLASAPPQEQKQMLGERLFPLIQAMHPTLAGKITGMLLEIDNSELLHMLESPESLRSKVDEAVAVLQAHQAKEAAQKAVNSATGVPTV
Env fusion inh: inhibitors of HIV Env-mediated cell fusion; 360,000 tested, 1.1% active; inhibition, % at 12.3 µM; HeLa-JRFL Env/CEM21 cell fusion, luciferase;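 active = mean replicate inhibition score of at least 50 and every replicate individually at or above 50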;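 also: 0% = plate neutral controls and 100% = maraviroc near 300 nM; one replicate is shown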
UUG fidelity: alters start codon recognition fidelity in yeast. S. cerevisiae UUG-firefly luciferase reporter, luminescence/redox ratio. activity score, % at 18.7 µM. 350,000 tested, 0.13% active;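 active = replicate mean at a twofold rise or more, about +100% in these data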;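 also: firefly luciferase made from a UUG start codon reports start codon fidelity; reporter light over untreated wells divided by growth signal over untreated wells; some hits fall short of that in this replicate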
eIF4H FP inh: inhibitors of RNA binding by human eIF4H; 290,000 tested, 0.94% active; eIF4H fluorescence polarization binding assay; inhibition, % at 35 µM; AID 2012; Q15056;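 active = 50% or more with normal probe brightness, or confirmed in later tests; about a fifth of its hits are not listed in these tables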;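 also: calls also rest on retests at 20 µM and on dose response follow-up; 0% = protein and probe with vehicle and 100% = probe without protein; strong numbers were not always called active; many hits fall short of the cut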
MT1-MMP act inh: inhibitors of human MT1-MMP activation. HT1080 RFP-PRO-GFP cells, GFP/RFP ratio fluorescence, overnight; percent of plate control window, DMSO zero. P50281. AID 651647. GFP/RFP ratio change, % at 20 µM. 360,000 tested, 0.061% active;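 active = GFP/RFP ratio change of at least 30% with cell ATP level not reduced by more than half and red fluorescence within 50% of control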; also: strong numbers were not always called active
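Assay system: HT1080 RFP-PRO-GFP cells | Dosing: 20 µM single dose, 1% DMSO | Incubation: Cells overnight before dosing, compound overnight, 37 °C, 5% CO2 | Evaluation: GFP/RFP fluorescence ratio | Control set: DMSO-only wells and HT1080 RFP-L50D-GFP cell wells as references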
CSC inhib: blocks cancer stem cells; cancer stem cell-like cells viability, luminescence; inhibition, % at 7.5 µM; 300,000 tested, 1.1% active; AID 2717;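 active = mean at 75% or more and at least half the replicates too; tested in HMLE shEcad cells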;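 also: 0% = median of negative and 100% = median of positive control wells; the first replicate is given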
Rce1 inh: inhibitors of yeast Ras-converting enzyme | yeast membranes, quenched prenylated peptide cleavage fluorescence | 290,000 tested, 0.27% active | calls only;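 active = fall in fluorescence gain of 50% or more versus controls, with final raw signal at or below 3038400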;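 also: plate controls were neutral control wells for no effect and wells lacking membranes for full effect; tested at 10 µM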
Target sequence (Q03530 whole entry, looked up): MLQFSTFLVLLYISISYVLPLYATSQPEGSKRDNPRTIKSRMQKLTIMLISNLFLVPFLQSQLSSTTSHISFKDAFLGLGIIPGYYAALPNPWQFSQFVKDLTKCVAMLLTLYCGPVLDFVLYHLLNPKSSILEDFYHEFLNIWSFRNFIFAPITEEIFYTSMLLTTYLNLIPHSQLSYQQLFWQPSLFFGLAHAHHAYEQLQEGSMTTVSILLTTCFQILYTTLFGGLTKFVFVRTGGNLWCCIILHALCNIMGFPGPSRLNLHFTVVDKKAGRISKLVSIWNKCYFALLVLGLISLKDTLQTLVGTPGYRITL
eIF4H FP inh retest: further read-out of eIF4H FP inh, marked with its call; inhibition, %; compound at 20 µM; confirmation average;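 mean of two retest wells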
PABP FP inh retest: also measured in PABP FP inh; calls as there; inhibition, %; compound at 20 µM; confirmation repeats;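 mean of two retest wells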
MT1-MMP act inh RFP: recorded beside MT1-MMP act inh, whose call it bears; RFP signal change, %; measured here: RFP expression control read;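 0 = vehicle wells; hits needed this value within 50% of zero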
* hit, by the source's call; i = inactive; . = not tested or not shown; & = joins results of further samples; [ ] = remark or other dose.

SMILES	PABP FP inh	Env fusion inh	UUG fidelity	eIF4H FP inh	MT1-MMP act inh	MT1-MMP act inh RFP	CSC inhib	Rce1 inh	others
COc1cccc(CN2CC(C(=O)NCCSc3nnnn3C)CCC2=O)c1 (centres undefined)	3	-13	-4	-15	-2	3	-3	i
O=C(O)c1cc(-c2ccc(Cl)c(Cl)c2)n(-c2ccc(F)cc2)n1	50	-15	-13	0	-2	-2	-2	i
O=C(Cn1nnc(-c2ccccc2)n1)OC1CCOC1=O (centres undefined)	4	.	-19	-17	-1	0	4	i
COc1ccc2c(C)cc(SCC(=O)Nc3c(C)n(C)n(-c4ccccc4)c3=O)nc2c1	-9	.	-1	-4	3	1	.	i
CN(C(=O)COC(=O)COc1ccccc1F)C1CCS(=O)(=O)C1 (centres undefined)	5	14	-13	-14	1	7	-8	i
CCN(CC)CCCNC(=O)c1c(O)c2cc(F)cc3c2n(c1=O)C(C)CC3 (centres undefined)	2	11	15	0	0	4	23	i
Cc1ccc(S(=O)(=O)NCC(=O)N2CCOCCOCCOCC2)cc1	-4	-9	-10	3	-1	3	1	i
O=C(CSc1nc2ccccc2c(=O)n1-c1ccc(F)cc1)Nc1ccc(Cl)c(S(=O)(=O)N2CCOCC2)c1	0	.	.	0	5	-5	-3	i
CCc1cc(C(=O)OC)c(NC(=O)CC2Nc3cc(C)c(C)cc3NC2=O)s1 (centres undefined)	1	25	.	0	-15	10	-17	i
COCCNC(=O)Cn1ccc2cc(S(=O)(=O)N3CCCCCC3)ccc21	19	-3	-18	0	3	0	-10	i
Oc1ccc2ccccc2c1N=Nc1ccccc1F	7	11	-10	2	0	0	39	i
CSc1ccccc1C(=O)N1CCN(c2cccc(Cl)c2)CC1	4	18	.	-4	-5	-5	37	i
Cc1nccn1CCCNC(=O)C1CCC(=O)N(Cc2ccccc2F)C1 (centres undefined)	4	-2	-14	1	-5	0	.	i
N#C/C=C/C(=C\Nc1ccc(Cl)cc1)S(=O)(=O)c1ccccc1	-5	-6	-34	-2	3	-1	-2	i
COc1ccc(C2C(C#N)=C(N)Oc3cc4c(cc32)OCO4)cc1 (centres undefined)	-4	.	.	-11	0	0	27	i
Cc1cc(NC(=O)Cn2nc(C(=O)O)c3ccccc3c2=O)ccc1Br	12	28	-2	-5	0	2	-9	i
O=C(CN1C(=O)C2C3C=CC(C3)C2C1=O)OCC(=O)c1ccc(Cl)cc1 (centres undefined)	3	13	-1	-2	0	2	.	i
NC(=S)N/N=C/c1cc([N+](=O)[O-])ccc1Cl	73	-18	-18	4	3	2	-2	i	eIF4H FP inh retest=-6;PABP FP inh retest=4
Cn1c(/N=C/c2c[nH]c3ccccc23)nc2ccccc21	11	.	-24	-6	0	4	-3	i
O=c1cc(N2CCN(c3ccccc3Cl)CC2)[nH]c(=O)n1Cc1ccc(F)cc1	-2	-51	-19	-9	-9	-22	62	i
O=C(CCc1nnc(C2(c3ccc(Cl)cc3)CCC2)o1)NCCCn1cccn1	-2	2	.	-9	4	4	5	i
Cc1noc(C)c1NC(=O)N(C)C[C@@H]1Oc2c(NC(=O)NC(C)C)cccc2C(=O)N([C@@H](C)CO)C[C@@H]1C	.	6[16.7 µM]	-18&-26	.	0	6	-4	.
c1cncc(-c2cn(C[C@H]3CC[C@H](Cn4cc(-c5cccnc5)nn4)O3)nn2)c1	.	1	4	.	3	3	.	.
Cc1ccc(NC(=O)c2nsc(Cl)c2Cl)cc1	1	-36	.	-3	-1	-1	.	i
Cc1ccc(S(=O)(=O)Nc2cccc(-c3ccc4nnc(C)n4n3)c2)s1	2	-24	-8	-7	10	14	.	i

(more compounds)
SMILES	PABP FP inh	Env fusion inh	UUG fidelity	eIF4H FP inh	MT1-MMP act inh	MT1-MMP act inh RFP	CSC inhib	Rce1 inh	others
N#CCCN1CCN(C(=S)c2ccc(-c3ccc(Cl)c(Cl)c3)o2)CC1	28	.	-21	9	-10	-12	7	i
O=C(COC(=O)CCC(=O)c1cccs1)Nc1ccccc1[N+](=O)[O-]	11	1	.	-6	-1	1	-1	i
Cn1nnnc1Sc1ncnc2scc(-c3ccccc3Cl)c12	.	39	-7	.	-4	-9	41	.
COc1ccccc1OC(=O)c1cc2ccccc2oc1=O	13	4	-7	2	6	2	-9	i
O=C(NC1CCCCC1)N1CCN(CCc2ccccc2)CC1	-11	-6	-14	6	1	0	7	i
CCc1cc(=O)oc2cc(OCC(=O)NCCCN3CCCC3=O)ccc12	1	-3	0	10	2	5	-28	i
CC(=O)c1cccc(NCC(=O)Nc2cc(S(=O)(=O)N3CCCCC3)ccc2C)c1	-13	20	-14	-8	8	-14	7	.
CCOC(=O)/C(C#N)=C/N=c1ccc(C)cn1C	4	-10	-5	-10	-1	-3	3	i
COc1ccccc1OCC(=O)Nc1c2c(nn1-c1ccc(F)cc1)CS(=O)(=O)C2	-10	.	-10	-10	-4	-1	-11	i
CNC(=O)N1CCN(C(=O)NC)CC1	-1	.	-12	-6	1	5	-2	i
COc1cccc(NC(=O)CCCn2c(=S)[nH]c3ccccc3c2=O)c1	1	-139	-26	-5	2	6	-12	i
Cc1ccc(Oc2ncccc2NC(=O)CCCC(=O)O)c2c1CCC2	4	-2	-4	-8	0	0	.	i
O=[N+]([O-])c1ccccc1CNC1CCCc2ccccc21 (centres undefined)	-4	0	-9	6	-6	1	-5	i
COc1ccc(N2CCN(C(=O)CN(Cc3ccccc3)S(C)(=O)=O)CC2)cc1	-9	.	.	2	1	3	-19	i
O=C(CN1CCOCC1)NCCC12CC3CC(CC(C3)C1)C2	0	.	6	-13	-1	-2	-13	i
CCC1=C(OC(=O)N(CC)CC)N2C(=O)OC(=NCC(=O)OC)[C@]2(C)[C@H]2C1=CC[C@H]1C(=O)NC(=O)[C@H]12	-2	-8	-1	8	5	7	-15	i
Cc1ccc(S(=O)(=O)NC(C)C(=O)NCc2ccc(Cl)cc2)cc1 (centres undefined)	.	15	-22	.	2	-3	0	i
Cc1cc(NC(=O)CCC(=O)N(c2ccccc2)C(C(=O)NC2CCCC2)c2ccccc2)no1 (centres undefined)	-11	.	-13	4	6	0	-13	i
COc1cccc(CN(C(=O)c2ccccc2Cl)C2CCS(=O)(=O)C2)c1 (centres undefined)	2	4	0	-13	0	2	-4	i
O=C(Nc1cccc(OC(F)(F)F)c1)C1Cc2c(-c3ccco3)ccnc2O1 (centres undefined)	.	1	-2	.	5	-7	.	.
c1ccc2c(c1)CCCN2c1nc2ccccc2n2cnnc12	82*	-9	6	80*	.	.	-2	i
CC(=O)NC1=NN(C(C)=O)C(c2ccc(F)cc2)S1 (centres undefined)	6	5	.	-1	-2	2	2	i
O=C(NC1CC2CCC(C1)N2C(=O)NCc1ccccc1)NC12CC3CC(CC(C3)C1)C2 (centres undefined)	1	-16	-1	-17	3	1	-6	i
Cc1c(O)c(C)c2c(c1O)C(=O)C[C@@H](c1ccccc1)O2	.	-63	-13	.	4	0	1	.
S=c1nc2ccccc2c2nc(-c3ccccc3Cl)[nH]n12	9	-4	.	-12	9	4	16	i

Random excerpt: 7 records from the list.
SMILES	PABP FP inh	Env fusion inh	UUG fidelity	eIF4H FP inh	MT1-MMP act inh	MT1-MMP act inh RFP	CSC inhib	Rce1 inh	others
Cc1cc(NC(=O)Cn2nc(C(=O)O)c3ccccc3c2=O)ccc1Br	12	28	-2	-5	0	2	-9	i
NC(=S)N/N=C/c1cc([N+](=O)[O-])ccc1Cl	73	-18	-18	4	3	2	-2	i	eIF4H FP inh retest=-6;PABP FP inh retest=4
c1ccc2c(c1)CCCN2c1nc2ccccc2n2cnnc12	82*	-9	6	80*	.	.	-2	i
O=C(CSc1nc2ccccc2c(=O)n1-c1ccc(F)cc1)Nc1ccc(Cl)c(S(=O)(=O)N2CCOCC2)c1	0	.	.	0	5	-5	-3	i
CN(C(=O)COC(=O)COc1ccccc1F)C1CCS(=O)(=O)C1 (centres undefined)	5	14	-13	-14	1	7	-8	i
O=C(NC1CC2CCC(C1)N2C(=O)NCc1ccccc1)NC12CC3CC(CC(C3)C1)C2 (centres undefined)	1	-16	-1	-17	3	1	-6	i
O=c1cc(N2CCN(c3ccccc3Cl)CC2)[nH]c(=O)n1Cc1ccc(F)cc1	-2	-51	-19	-9	-9	-22	62	i

Carrying on:
SMILES	PABP FP inh	Env fusion inh	UUG fidelity	eIF4H FP inh	MT1-MMP act inh	MT1-MMP act inh RFP	CSC inhib	Rce1 inh	others
COc1cccc(COc2ccccc2C2Nc3ccc(Br)cc3C(=O)N2NC(=O)c2ccncc2)c1 (centres undefined)	-1	.	-11	4	-1	-10	1	i
CCCOC(=O)C(C)n1cnc2sc(C)c(C)c2c1=O (centres undefined)	0	-52	-5	-13	-11	2	-7	i
O=c1[nH]c(=O)c2ncc(-c3ccc(Cl)cc3)nc2[nH]1	-4	.	.	4	.	.	-6	i
CC(=O)c1cnc2c(C(=O)O)cnn2c1C	-2	.	-13	2	1	5	-7	i
COc1ccc(-n2c(SCC(N)=O)nnc2-c2ccco2)cc1	-5	3	-2	-6	0	1	-18	i
C[C@H]1COC(=O)[C@@H](CC(=O)OC(C)(C)C)C/C=C\C[C@@H](CC(=O)N(CCO)Cc2ccccc2)C(=O)N1	.	5	-2	.	4	6	.	.
Cc1ccc(S(=O)(=O)N(C)C)cc1NC(=O)CSc1nnnn1-c1ccc(O)cc1	5	2	9	-2	3	-12	-3	i
CCOC(=O)c1ccc(NC(=O)NCCc2cnc[nH]2)cc1	6	-26	-2	3	.	.	-5	i
C=CCOc1cccc(C2/C(=C(\O)c3ccc4c(c3)OCCO4)C(=O)C(=O)N2Cc2cccnc2)c1 (centres undefined)	9	3	.	-6	-2	2	-14	i
Cc1cccc(Nc2nc(-c3sc(C)nc3C)cs2)c1	6	-22	3	1	-2	-25	33	i
O=C(NC1CCCCC1)C(c1ccco1)N(C(=O)c1csnn1)C1CCCC1 (centres undefined)	0	-32	0	-5	-6	-4	-2	i
CCOc1ccccc1NC(=S)N(CCC(C)C)C1CCN(C(C)=O)CC1	-2	-12	-18	6	4	4	-9	i
O=S(=O)(Nc1ccc(Cl)cn1)c1cccc(S(=O)(=O)c2ccccc2)c1	9	-4	.	6	-5	-4	-11	i
CCN(CC)C(=O)Nc1ccc(C(=O)OC)cc1	-1	-145	-9	-6	-2	6	-2	i
CC(C)COC(=O)C(C#N)c1nc2ccccc2nc1N1CCN(Cc2ccccc2)CC1 (centres undefined)	63*	-114	-10	44*	-12	-5	-2	i	eIF4H FP inh retest=94*;PABP FP inh retest=66*
CN(C)CCC(=O)N1c2ccccc2Sc2ccc(Cl)cc21	11	-6	-2	1	-4	0	16	i
COc1cccc(-c2c(C(=O)N/N=C/c3ccc(C)s3)nnn2-c2nonc2N)c1	-6	11	-6	-8	-3	-6	-8	i
C=CCn1c(SCC(=O)N(CC)C2CCS(=O)(=O)C2)nc2cc(C(=O)O)ccc2c1=O (centres undefined)	.	-1	-1	.	0	-1	0	.
Cc1cccc(C=Nc2ccc3c(c2)oc2ccccc23)c1O	-9	-24	-18	-16	5	0	6	i
COc1cc(C=C2C(=O)OC(c3ccccc3)OC2=O)cc(Br)c1O (centres undefined)	-12	15	.	-1	0	-1	-1	i
COc1ccc(-c2csc(=Nc3c(C)n(C)n(-c4ccccc4)c3=O)n2C(C)(C)C)cc1	22	.	-17	3	1	-2	-1	i
CCOC(=O)c1cccc(NC(=O)CSc2nnnn2CC)c1	0	-9	2	4	2	5	.	i
CCOC(=O)COc1ccccc1/C=N/Nc1nnc2c3ccccc3n(C)c2n1	.	-3	-12	.	5	0	4	i
COc1ccc(-n2c(O)c(Cc3ccccc3)c(=O)n3nc(-c4ccccc4)c(=O)cc23)cc1	-6	-9	-15	-8	3	0	.	i

An excerpt; count on the stated rates, not on these rows.
